Bioassay records: PubChem, ICCB-Longwood Screening Facility, Harvard Medical School
GIV-Gai inh: GIV-Galpha-i interaction inhibition. P08753. percent of control (FP), % (test concentration not listed). hit rate 0.42% among 210,000. AID 1224905. Galpha-i3/FITC-GIV peptide fluorescence polarization, 90 min; stronger effect = lower value; scaled: aluminum fluoride 0%, vehicle 100%;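 active = replicate mean at 85% of control or lower, very high polarization wells dropped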;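 note: wells of about 15 µL received 100 nL stock; the first replicate is given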
Target sequence (P08753 whole entry, looked up): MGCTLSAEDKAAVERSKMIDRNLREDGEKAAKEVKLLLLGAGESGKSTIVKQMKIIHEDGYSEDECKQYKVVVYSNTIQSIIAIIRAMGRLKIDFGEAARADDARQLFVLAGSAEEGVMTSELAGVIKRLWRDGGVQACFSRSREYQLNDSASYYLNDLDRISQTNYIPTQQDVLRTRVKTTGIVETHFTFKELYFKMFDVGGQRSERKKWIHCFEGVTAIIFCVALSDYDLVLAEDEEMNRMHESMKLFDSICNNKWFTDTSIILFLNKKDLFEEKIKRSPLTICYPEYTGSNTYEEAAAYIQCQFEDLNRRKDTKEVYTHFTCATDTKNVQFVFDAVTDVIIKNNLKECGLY
HCMV UL50-53 inh: cytomegalovirus nuclear egress complex inhibition. HTRF UL50-UL53 interaction, normalized percent inhibition. inhibition, % (test concentration not listed). hit rate 0.15% among 190,000. AID 1918969;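 active = both replicates at 50% or more, plus weaker picks with an unusually low signal ratio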;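 note: stock transfer was 100 nL into about 20 µL; 0% = negative control wells and 100% = wells with untagged competitor protein; inactives centre near -12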
Sa growth 42C: inhibitors of Staphylococcus aureus growth at 42 °C. AID 720641. S. aureus RN4220 growth, OD600, 20 h; stronger effect = lower value. hit rate 0.53% among 170,000. relative growth, % (test concentration not listed);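 active = growth at 42 °C up to 50% and 20 or more points under that at 30 °C, or under 10% at both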;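 note: 300 nL library stock went into each well; scaled to the means of positive and negative controls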
Sa growth 42C second temp: second read-out of Sa growth 42C, no call of its own (marks repeat the call); relative growth, %; measured here: growth at 30 °C;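 optical density after 20 h as mean of two plates; 100% = untreated growth and lower means inhibition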
Starred values were filed as active, the others as inactive; · = not tested or not shown; & = joins results of further samples.

mol,HCMV UL50-53 inh,Sa growth 42C,GIV-Gai inh,Sa growth 42C second temp
C=CCNC(=O)Nc1ccc(F)c(Cl)c1,26.9,104.5,107.4,99.2
CC(=O)c1ccc(NC(=O)CSc2nc3ccc(NC(=O)c4ccccc4C(=O)O)cc3s2)cc1,-14.1,·,106.0,·
Cc1ccc(-c2nnc(Nc3ccc(OC(F)(F)Cl)cc3)c3ccccc23)cc1S(=O)(=O)NC(C)(C)CO,-25.8,101.8,105.9,85.5
COc1cccc(CNC(=O)CCc2ccc(-n3cnc4cccnc43)cc2)c1OC,-5.2,·,120.8,·
Cc1ccn(C(=S)Nc2ccccc2)n1,-18.0,92.4,·,83.8
N#Cc1ccc(S(=O)(=O)N2CCC(C(=O)O)CC2)cc1,-15.3,78.8,·,92.2
Clc1nccc2c1ccc1ccccc12,-14.2,·,103.0,·
CC(C)c1ccc(NC(=O)COC(=O)/C=C/c2ccco2)cc1,-1.4,106.4,·,90.9
CCOCCCNC(=O)C(c1ccc(C)cc1)N(Cc1ccc2c(c1)OCO2)C(=O)c1ccc(NC(C)=O)cc1 (configuration not stated),-15.9,102.2,102.6,82.1
COc1cc(/C=C2/NC(=S)NC2=O)ccc1OCc1ccccc1[N+](=O)[O-],-3.2,·,107.6,·
CNC(=O)c1ccc2nc(N)sc2c1,·,118.4,105.6,90.8
Cc1cccc(NS(=O)(=O)N(C)C)c1,-5.1&-12.9,101.8&95.4,94.6,82.3&80.5
COc1cc(NC(=O)c2nn3c(c2Br)NC(c2cccs2)CC3C(F)(F)F)c(OC)cc1Cl (configuration not stated),-8.7,·,94.4,·
O=S(=O)(Nc1ccccc1Cl)c1ccc2nc(-c3ccccc3)[nH]c2c1,·,107.6,104.0,96.7
Cc1cc2c(CCl)cc(=O)oc2cc1C(C)C,-2.6,91.8,·,92.4
COc1ccc(-c2cc(OC(=O)c3ccc(F)cc3)c3c(C)oc(C)c3c(=O)c2)cc1OC,-33.4&-24.7,105.0,107.2&110.7,92.3
CCOC(=O)c1ccccc1NC(=O)CSc1ncc(CO)n1Cc1ccc(F)cc1,-6.4,·,103.1,·
COc1cc(OC)c(NC(=O)Nc2ccccc2SCc2cc(=O)n3oc(C)cc3n2)cc1Cl,-27.6,·,109.2,·
C/C(=N\O)C1(C)N(O)C(C)(C)C(c2ccc(C)cc2)=[N+]1[O-] (configuration not stated),-12.5,85.8,·,88.7
COc1cccc(OC)c1C(=O)ON=C1C=CC(=O)C=C1,-10.1,117.4,98.7,84.2
O=c1c2c3nc4ccccc4nc3n(CCN3CCOCC3)c2ncn1CCN1CCOCC1,-118.5,83.7,·,91.6
O=C1CCN(C(=S)NCCc2ccccc2)CC1,1.1,99.9,·,94.3
COCc1nc2scc(-c3ccccc3)c2c(=O)[nH]1,-35.0,·,97.1,·
O=C1CNC(=O)c2c(nc3n2CCC3)N1,20.2,79.5,100.5,106.9
CN(C)C(=O)c1ccc2c(c1)NC(=O)CS2,-11.2,·,108.4,·
COC(=O)c1cc2sccc2n1CC(=O)N1CCCc2ccccc21,4.2,92.3,108.9,94.6
Clc1ccc2nc(-c3ccccn3)c(Nc3ccc4c(c3)OCCO4)n2c1,6.4,·,101.2,·
C=CCN1C(=O)C(O)(c2c[nH]c3ccccc23)c2cc(Cl)ccc21 (configuration not stated),-28.5,126.6,102.5,91.3
CC(C)=CCNc1ncnc2nc[nH]c12,-6.3,74.1,·,80.0
CC1=C(C)CS(=O)N(c2ccc(S(N)(=O)=O)cc2)C1 (configuration not stated),-18.8,89.9,·,46.6
COC(=O)CSc1c(Cl)cncc1Cl,-4.4,88.9,103.6,88.1
CCOc1ccc(C2CC(=O)NC(NC(=O)c3cccc(Cl)c3)=N2)cc1 (configuration not stated),·,116.9,106.7,97.4

Exported with each value named: part of the list above.
> COC(=O)c1cc2sccc2n1CC(=O)N1CCCc2ccccc21
  HCMV UL50-53 inh: 4.2	Sa growth 42C: 92.3	GIV-Gai inh: 108.9	Sa growth 42C second temp: 94.6
> CC(C)=CCNc1ncnc2nc[nH]c12
  HCMV UL50-53 inh: -6.3	Sa growth 42C: 74.1	GIV-Gai inh: ·	Sa growth 42C second temp: 80.0
> Clc1ccc2nc(-c3ccccn3)c(Nc3ccc4c(c3)OCCO4)n2c1
  HCMV UL50-53 inh: 6.4	Sa growth 42C: ·	GIV-Gai inh: 101.2	Sa growth 42C second temp: ·
> C=CCN1C(=O)C(O)(c2c[nH]c3ccccc23)c2cc(Cl)ccc21 (configuration not stated)
  HCMV UL50-53 inh: -28.5	Sa growth 42C: 126.6	GIV-Gai inh: 102.5	Sa growth 42C second temp: 91.3

More compounds.
mol,HCMV UL50-53 inh,Sa growth 42C,GIV-Gai inh,Sa growth 42C second temp
Cc1ncc(CO)c2cc(C(=O)Nc3ccccc3Cl)c(=O)oc12,2.8,111.6,102.7,81.5
Cc1cccc(NC(=O)c2c(N)sc3c2CCC(C)C3)c1 (configuration not stated),-14.9,112.7,105.0,92.8
COc1ccc(C(=O)NCCOc2cc(C)cc(C)c2)cc1OC,4.8,100.4,·,84.8
COc1ccc(/C=N/N=C2/NC(=O)/C(=C(/C)c3nonc3C)S2)cc1OC,-1.3,84.9,104.5,91.4
O=C(NC(SC1=NCCS1)C(=O)c1ccccc1)c1ccccc1 (configuration not stated),-1.1,98.8,·,97.7
COc1cccc(NC(=O)CCc2nc(-c3ccc(C(C)(C)C)cc3)no2)c1,-2.5,102.9,111.6,78.8
Cc1ccc(-n2ncc3c(N(C)C)ncnc32)cc1Cl,·,120.2,102.6,94.2
CC(=O)N1N=C(c2c(-c3ccccc3)c3cc(Br)ccc3[nH]c2=O)CC1c1ccco1 (configuration not stated),-9.8,·,103.2,·
NC1=NC(=O)/C(=C/c2ccc(OC(=O)c3ccc(Cl)cc3)cc2)S1,-23.0,·,104.8,·
CC(C)OCCCn1c(=O)c2cc(Cl)ccc2n2c(SCc3ccc(Cl)cc3)nnc12,2.3,·,98.0,·
CCn1c(C)c(C)c2cc(C(=O)N3CCN(c4cccc(C)c4C)CC3)ccc21,·,97.3,112.2,48.5
CCOC(=O)c1c(CCC(=O)O)c2ccccc2n1C,4.0,·,105.6,·
Cc1cc(=O)oc2cc(OCC(=O)OCC(=O)Nc3ccc4c(c3)OCCO4)ccc12,-2.7,91.5,·,96.2
Cc1ccc(C)c(NC(=O)Nc2nnc(N(CC(C)C)CC(C)C)s2)c1,2.8,108.2,97.7,95.7
CN1CC[n+]2cnc3ccccc3c21,-17.3,85.6,99.5,81.8
CC1CN(S(=O)(=O)c2ccc(NC(=O)C(C)Oc3ccc(F)cc3)cc2)CC(C)O1 (configuration not stated),1.0,110.7,106.0,106.2
Cc1ccc(S(=O)(=O)Nc2cc(Cl)c3oc4c(c3c2)C(=O)CC(C)(C)C4)cc1,-29.9,101.8,110.1,106.0
COc1cc2c(cc1OC)CN(C(=O)c1ccc(N3C(=O)CCS3(=O)=O)cc1Cl)CC2,-30.3,·,107.4,·
COC(=O)COc1ccc(C)cc1C(C)(C)C,-3.1,99.2,101.0,88.1
Cc1ccc(-n2c(C)cc(C=C3C(=O)NC(=O)NC3=O)c2C)cc1,-11.9,99.1,118.1,101.1
C(=N\c1nc2ccccc2[nH]1)/c1ccc2c(c1)OCO2,-7.0,94.9,103.8,102.9
O=S(=O)(c1ccc2c(c1)OCCO2)N1CCCC1c1cccs1 (configuration not stated),-2.5,87.8,·,90.8
Cc1ccc(/C=C2\N=C(c3ccccc3)OC2=O)o1,-77.3,114.5,·,76.2
Nc1c(C(=O)c2ccc(Cl)cc2)oc2nc(-c3ccco3)cc(-c3cccs3)c12,-22.7,103.0,215.4,87.0
COc1ccc(N2CC(C(=O)NCc3nnnn3-c3ccc(C)c(C)c3)CC2=O)cc1 (configuration not stated),·,89.8,99.3,84.7
COc1ccc(CCC(=O)NC2CCC(C)CC2)cc1 (configuration not stated),7.6,110.7,·,98.0
O=C(Nc1ccc2nn(-c3ccccc3)nc2c1)c1cc2ccccc2o1,-61.9,98.1,110.9,86.8
CCOc1ccccc1C1C(C(=O)N2CCCCC2)=C(C)Nc2nc3ccccc3n21 (configuration not stated),-5.3,104.4,101.3,88.3
COc1cc(OC)c(NC2c3ncccc3C(=O)N2Cc2cccs2)cc1Cl (configuration not stated),·,86.2,99.3,92.9
O=C(COC(=O)c1n[nH]c2ccccc12)Nc1ccc(S(=O)(=O)N2CCCC2)cc1,-1.6,95.8,·,93.0
O=C(Cn1nnc(-c2ccccc2F)n1)NCc1ccc2c(c1)OCO2,5.6,102.2,·,89.7
COc1cc(CNc2ccc3[nH]c(=O)[nH]c3c2)cc(Br)c1OCc1ccccc1F,-6.4,109.2,102.2,94.9
CCOC(=O)c1sc2nc(CC(=O)OC)nc(N3CCN(c4ccc([N+](=O)[O-])cc4)CC3)c2c1C,3.2,·,105.3,·
CN1C(=O)c2ccccc2Sc2ccc(NC(=O)N3CCCCC3)cc21,-22.4,99.9,103.9,70.2
COC(=O)c1c(O)cc(=O)n2c1CCC2,-3.1,102.1,·,92.2
O=C(Nc1cccc(C(=O)N2CCN(c3ccccc3)CC2)c1)C1=CSCCO1,-17.2,98.9,103.8,86.2
CC(=O)ON=C1CC(C)(C)NC(C)(C)C1,-18.3,87.3,104.8,86.7
CCc1cc(C(=O)c2ccc(OC)cc2)c(NC(=O)CSCC(=O)O)s1,-54.6,85.6,98.2,86.6
CCCn1c(=O)c2ccccc2n2c(=O)n(CC(=O)Nc3ccc(CC)cc3)nc12,-12.1,·,105.0,·
COCCn1c(C)cc(O)c(C(c2ccc(OC)cc2)N2CCN(c3ccccc3)CC2)c1=O (configuration not stated),·,89.2,98.0,87.1
O=C(CSc1nnc(-c2ccco2)o1)c1ccc([N+](=O)[O-])cc1,-90.6,·,94.4,·
COc1cc(-c2c(C#N)c(N)n3c(nc4ccccc43)c2C#N)ccc1OC(=O)N(C)C,-49.3,·,104.0,·
Cn1ccnc1C(=O)c1cc(Sc2ncccc2C#N)nc2ccccc12,-43.8,89.5,·,81.9
Cc1ccc(C(=O)NC2=NC(c3ccc(C)cc3)CC(=O)N2)cc1 (configuration not stated),·,80.0,109.4,82.4
CN(C)c1nnnn1Cc1ccc(Cl)cc1Cl,-18.8,·,102.8,·
CC1CCN(C(=O)c2ccc(-c3nn(C)c(=O)c4ccccc34)cc2)CC1,·,94.8,101.1,92.9
c1ccc(CCCc2nn3c(-c4cccnc4)nnc3s2)cc1,4.0,·,102.8,·
COC(=O)c1c(C)oc2ccc(OC(=O)c3ccc(OC)cc3)cc12,·,109.2,99.6,101.5
CCOC(=O)c1c(N2CCCC2=O)sc(C)c1CC,-16.5,91.8,·,86.0
CCN(CC)S(=O)(=O)c1ccc2c(c1)nc(C(F)(F)F)n2CCC(=O)Nc1ccc(C)cc1,-3.3,·,105.6,·
OC(CN1CCN(c2cccc(Cl)c2)CC1)c1ccc2c(c1)CCN2 (configuration not stated),3.7,·,103.9,·
Cc1ccc(C(=O)CC(SC2CCCCC2)C(=O)O)cc1 (configuration not stated),5.0,130.8,·,96.0
CC(C)c1ccc(S(=O)(=O)Nc2cc3c4c(oc3c3ccccc23)CCCC4)cc1,·,79.1,119.6,65.1
COc1ccc(-c2nc3sc4c(c3c(=O)o2)CCCC4)cc1OC,-19.0,·,102.8,·
CC(NC(=O)c1ccc2c(c1)N(Cc1cccc(F)c1)C(=O)c1ccccc1S2)c1ccccc1 (configuration not stated),·,114.9,104.9,92.8
Nn1c(SCC(=O)c2ccc(Cl)cc2)nc2ccccc2c1=O,2.7,96.4,·,96.2

An unsorted share of the library (roughly 0.82% active in at least one column).
